NS1 function inh: qHTS Assay for Inhibitors of Influenza NS1 Protein Function; Potency, µM (top dose mostly 46.1 µM), without a hit: at the top dose activity, positive = more growth; S. cerevisiae slowed by influenza A NS1, growth recovery by OD600; hit rate 0.4% among 270,000; also: actives are rising curves; nearly all actives have a fitted effect of over 50% in size
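In this qHTS, NS1 from influenza A is expressed in budding yeast, where it slows growth. Cells are switched from glucose to 2% galactose medium (pH 6.0, -URA), treated with compound, and growth recovery is read at OD600.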
Cruzain inh Det: qHTS Assay for Promiscuous and Specific Inhibitors of Cruzain (with detergent); hit rate 0.43% among 200,000; AID 1478, 2009; Cruzipain (Trypanosoma cruzi), P25779; purified cruzain, Z-FR-AMC fluorescence, 0.01% Triton; Potency, µM, without a hit: max response, negative = inhibition, actives largely listed as inhibitors; active = well fitted curve in the direction sought with a large enough effect; inconclusive = small, poorly fitted or top-dose-only effect, or another doubt; inactive = no such curve, though single readings can be large; an effect the other way counts as inactive or inconclusive;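 also: plate controls were neutral wells for no effect and buffer without enzyme for full effect; nearly all actives have a fitted effect of over 40% in size; top concentration of the series not given in the record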
Target sequence (P25779 123-467 limits assumed): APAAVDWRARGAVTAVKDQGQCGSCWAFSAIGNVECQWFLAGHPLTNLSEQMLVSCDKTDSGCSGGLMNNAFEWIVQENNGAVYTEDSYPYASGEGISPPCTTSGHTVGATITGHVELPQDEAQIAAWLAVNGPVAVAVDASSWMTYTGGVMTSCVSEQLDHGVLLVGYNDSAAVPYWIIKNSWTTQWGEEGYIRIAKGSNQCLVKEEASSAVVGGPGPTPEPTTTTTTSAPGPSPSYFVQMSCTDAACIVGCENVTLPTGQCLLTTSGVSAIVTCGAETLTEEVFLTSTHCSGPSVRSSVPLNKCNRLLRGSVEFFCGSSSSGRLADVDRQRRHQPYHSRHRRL
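Z-FR-AMC hydrolysis (2 uM substrate) by cruzain (1.5 nM) monitored kinetically at ex 360/em 450 nm after 15 min room-temperature compound exposure; 0.01% Triton X-100, pH 5.5, 5 mM DTT.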
SARS PLP yeast: qHTS of Yeast-based Assay for SARS-CoV PLP; S. cerevisiae expressing SARS-CoV PLpro, growth rescue; control for the full effect not named in the record; hit rate 0.19% among 330,000; Potency, µM (titrated, usually from 32.9 µM), inactives show top-dose activity, positive = growth rescue; also: 0% is about no effect; nearly all actives have a fitted effect of over 55% in size; growth read by luminescence after 48 h
Cruzain noTriton: qHTS Assay for Promiscuous and Specific Inhibitors of Cruzain (without detergent); purified cruzain, Z-FR-AMC fluorescence, no detergent; Potency, µM, inactives show max response, negative = inhibition, usual class: inhibitors; hit rate 2.3% among 200,000; AID 1476, 2009; active = well fitted curve in the direction sought with a large enough effect; inconclusive = small, poorly fitted or top-dose-only effect, or another doubt; inactive = no such curve, though single readings can be large; an effect the other way counts as inactive or inconclusive;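 also: plate controls were enzyme without inhibitor for no effect and buffer without enzyme for full effect; nearly all actives have a fitted effect of over 40% in size; top concentration of the series not given in the record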
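Detergent-free condition (0.00005% Triton X-100) in acetate buffer pH 5.5 with DTT. 1.5 nM enzyme and compound were pre-mixed 15 min, then 2 uM Z-FR-AMC substrate added; reaction progress from fluorescence change between first and third reads (60 s).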
Lassa entry inh: qHTS for Inhibitors of binding or entry into cells for Lassa Virus; hit rate 1.2% among 300,000; Potency, µM (series often up to 37.9 µM), without a hit: at the top dose activity change, negative = inhibition, actives largely listed as inhibitors; Lassa virus pseudotype entry inhibition, cell reporter; control for the full effect not named in the record; AID 540256, 2011; active means well fitted inhibition curve with a large enough effect; inconclusive means small, poorly fitted or top-dose-only effect, or effect the other way; inactive means flat fitted curve, though single readings scatter; tested in HEK293 cells; also: % is scaled to controls: 0 for no effect and ±100 for the full control effect; nearly all actives have a fitted effect of over 50% in size; luciferase read-out
RE007 growth inh: qHTS Assay for Inhibitors of the HIV-1 protein Vpr; S. pombe RE007 Vpr strain, BacTiter-Glo ATP luminescence, 24 h; control for the full effect not named in the record; AID 651644, 2012; Potency, µM (doses to about 92.2 µM), for inactives: at the top dose activity change, negative = less growth; hit rate 0.21% among 360,000; active = well fitted falling curve with a large enough effect; inconclusive = small, poorly fitted or top-dose-only effect; inactive = no such curve, though single readings can be large or run the other way;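 also: % is scaled to controls: 0 for no effect and ±100 for the full control effect; nearly all actives have a fitted effect of over 50% in size; the assay follows cell death caused by Vpr and the record does not say whether a fall means rescue or toxicity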
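Fission yeast RE007 carrying one integrated HIV-1 vpr copy, seeded at OD 0.01 in PMG+AL medium with 23 nL pinned compound. Grown 24 h at 30 degrees; viability read by BacTiter-Glo luminescence after 5 min.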
2A StopGo: High Throughput Screening for Foot and Mouth Disease Virus Antivirals | human cells with a luciferase reporter of 2A StopGo recoding; control for the full effect not named in the record | Potency, µM (doses to about 57.9 µM), without a hit: at the top dose signal change, negative = less light | AID 1159524, 2015 | hit rate 1.2% among 410,000; active = well fitted falling curve with a large enough effect; inconclusive = small, poorly fitted or top-dose-only effect; inactive = no such curve, though single readings can be large or run the other way; tested in HEK293T cells; also: % is scaled to controls: 0 for no effect and ±100 for the full control effect; nearly all actives have a fitted effect of over 45% in size; luciferase light after 4 h
MARV entry inh: qHTS for inhibitors of binding or entry into cells for Marburg Virus; Marburg virus pseudotyped entry inhibition, cell reporter; control for the full effect not named in the record; about a third of the inactives were read at about 46 µM; Potency, µM (top dose mostly 37.8 µM), inactives show at the highest dose activity change, negative = inhibition, hits mostly inhibitors; hit rate 1.8% among 300,000; active = well fitted inhibition curve with a large enough effect; inconclusive = small, poorly fitted or top-dose-only effect, or effect the other way; inactive = flat fitted curve, though single readings scatter; tested in HEK293 cells; about a fifth of its hits are not listed in these tables; also: % is scaled to controls: 0 for no effect and ±100 for the full control effect; luciferase read-out
* marks the source's active call; other numbers are inactive results; ? = inconclusive; nt = not tested or not shown; & = joins results of further samples; [ ] = another dose, or the depositor's remark. Unless noted, calls follow the shape of the dose curve; as a rule, active means well fitted rising curve with a large enough effect; inconclusive means small, poorly fitted or top-dose-only effect; inactive means no such curve, though single readings can be large or run the other way. Potency is read from the fitted curve at half-maximal effect.

SMILES	NS1 function inh	Cruzain inh Det	SARS PLP yeast	Cruzain noTriton	Lassa entry inh	RE007 growth inh	2A StopGo	MARV entry inh
Cc1noc(C)c1S(=O)(=O)Nc1cccc(C(F)(F)F)c1	-54%	nt	27%	nt	nt	11%	-3%	nt
COc1cccc(/C=N/NC(=O)c2c(C)nc3ccc(Br)cn23)c1O	nt	nt	?	nt	5.2µM*	6%	-22%	1.8µM*
COc1ccc(-c2csc(NC(=O)C3=COCCO3)n2)c(OC)c1	nt	nt	-3%	nt	-9%	?	26%	?
CCn1c(SCc2nc3scc(-c4ccccc4)c3c(=O)[nH]2)nnc1-c1ccc(Cl)cc1	-10%	3.7%	14%	?	6%	20%	?	?
Cc1cc(C)n2c(SCC(=O)NCc3ccc4c(c3)OCO4)nnc2n1	2%	nt	-1%	nt	nt	10%	-10%	nt
CSc1cccc(NC(=O)COc2ccccc2)c1	-56%	-0.4%	-6%	-5%	19%	?	45%[activator]	2%
COC(=O)CSc1ncnc2c1sc1nc3c(cc12)COC(C)(C)C3	0%	nt	0%	nt	nt	-9%	?	8%[46.1 µM]
Cc1ccccc1OCCC(=O)OCC(=O)NC(C)c1ccccc1 (stereo unspecified)	nt	nt	0%	nt	6%[46.1 µM]	-9%	-6%	?
O=C1NN=C(c2ccc(Cl)cc2)CC1c1cccc(Br)c1 (stereo unspecified)	4%	nt	-14%	nt	3%	3%	?	10%[46.1 µM]
Cc1ccccc1C(=O)Nc1cccc(-c2cn3ccccc3n2)c1	-42%	nt	-3%	nt	?	-19%	?	?
Cc1noc(C)c1CSCC(=O)Nc1cc(S(=O)(=O)N2CCOCC2)ccc1OCC(F)(F)F	nt	nt	1%	nt	-19%	14%	3%	12%
COc1ccc(NC(=O)CNC(=O)c2c(C)nn(C)c2Cl)cc1	nt	nt	0%	nt	-4%[46.1 µM]	3%	0%	3%[46.1 µM]
COCCN(Cc1cc2ccc(C)cc2n2nnnc12)Cc1nnnn1C(C)(C)C	-2%	-1.3%	-23%	?	-4%	-19%	-24%	?
COc1ccc2c(Cl)c(C(=O)N/N=C/c3ccc4c(c3)OCO4)sc2c1	1%	-0.1%	3%	?	?	-1%	-8%	?
CC1(C)CC2CC(C)(CN2C(=O)C23CCC(C)(C(=O)O2)C3(C)C)C1 (stereo unspecified)	-7%	1.0%	-3%	?	?	7%	nt	0%
CCOC(=O)N1CCN(C(=O)COC(=O)CN(C)S(=O)(=O)c2ccc(NC(C)=O)cc2)CC1	16%	nt	-2%	nt	-18%	14%	-9%	0%
Cc1cccc(CCNC(=O)c2nnc(Cc3ccc(Cl)cc3)o2)c1	0%	1.5%	10%	2%	-13%	-10%	-4%	-27%
COc1ccc2occ(CC(=O)Nc3ccc(S(=O)(=O)Nc4nc(C)cc(C)n4)cc3)c2c1	nt	-1.8%	nt	?	-1%[46.1 µM]	nt	-2%	3%[46.1 µM]
CC(C)c1c(C(=O)N/N=C/c2ccc(Cl)cc2Cl)nnn1-c1nonc1N	5%	nt	?	nt	nt	2%	-19%	nt
O=C(/C=C/c1ccccc1F)N1CCN(c2ccccn2)CC1	-12%	nt	-3%	nt	19%[46.1 µM]	-9%	11%	?
CN(C)c1nc(OCCNC(=O)COc2ccc(Cl)cc2Cl)nc(N2CCOCC2)n1	3%	-4.3%	2%	?	13%	-4%	?	-13%&-13%
CC(OC(=O)c1ccc(-n2cnnn2)cc1)C(=O)NCc1ccccc1 (stereo unspecified)	nt	nt	2%	nt	15%	1%	-13%	-25%[46.1 µM]
CCCCC(=O)NC(=S)Nc1cccc(Cl)c1N1CCCCC1	-1%	-6.9%	6%	-6%	20%	14%	?	?
Clc1ccc(-c2cn3cc(Br)ccc3n2)cc1Cl	-7%	3.3%	14%	-3%	?	-23%	-52%	?
OC1(CN2CCOCC2)C2CC3CC(C2)CC1C3 (stereo unspecified)	2%	4.6%	1%	-1%	0%	-7%	-10%	13%

Ordered by heavy-atom count (low to high): part of the list above.
SMILES	NS1 function inh	Cruzain inh Det	SARS PLP yeast	Cruzain noTriton	Lassa entry inh	RE007 growth inh	2A StopGo	MARV entry inh
COc1ccc(-c2csc(NC(=O)C3=COCCO3)n2)c(OC)c1	nt	nt	-3%	nt	-9%	?	26%	?
COc1cccc(/C=N/NC(=O)c2c(C)nc3ccc(Br)cn23)c1O	nt	nt	?	nt	5.2µM*	6%	-22%	1.8µM*
Cc1noc(C)c1CSCC(=O)Nc1cc(S(=O)(=O)N2CCOCC2)ccc1OCC(F)(F)F	nt	nt	1%	nt	-19%	14%	3%	12%

More compounds.
SMILES	NS1 function inh	Cruzain inh Det	SARS PLP yeast	Cruzain noTriton	Lassa entry inh	RE007 growth inh	2A StopGo	MARV entry inh
CC(C)(C)NC(=O)CN(C(=O)c1snc(C(=O)NC2CCCCC2)c1N)c1ccccc1F	3.2µM*	nt	-4%	nt	-25%[46.1 µM]	7%	-7%	?
Cc1nn(-c2ccccc2)c2c1C1(C(=O)N(C)c3ccccc31)C(C#N)=C(N)O2 (stereo unspecified)	-9%	-8.4%	-16%	-3%	?	-4%	?	-3%
COc1cc(Br)cc(/C=N/NC(=O)Cc2ccccc2)c1O	nt	nt	nt	nt	13µM*	4%	37%[activator]	-18%
O=C(NCCN1CCOCC1)c1ccc2c(c1)N(Cc1ccc(F)cc1)C(=O)CS2	0%	-6.1%	0%	3%	nt	-4%	-14%	0%
CCOC(=O)N1CCN(C(=O)c2cn(CC)c3ccc(S(=O)(=O)N(C)C4CCCCC4)cc3c2=O)CC1	5%	nt	3%	nt	nt	-5%	7%	nt
O=C(O)c1ccc(N/N=C/c2ccncc2)cc1	-2%	nt	-2%	nt	nt	-16%	31%[activator]	nt
Cc1ccc(C(=O)N/C(=C\Cl)P(=O)(c2ccccc2)c2ccccc2)cc1	-5%	3.6%	-10%	14%	13%	17%	-1%	-1%
Cc1cccc(Cc2c(C)nc3nc(SCC(=O)NCc4ccccc4)nn3c2C)c1	nt	-3.3%	nt	2%	-23%[46.1 µM]	nt	-3%	-1%[46.1 µM]
O=C(OC(C(=O)Nc1cc(Cl)cc(Cl)c1)c1ccccc1)C1=COCCO1 (stereo unspecified)	-25%	-8.4%	-40%	?	0%	-2%	43%[activator]	?
O=C(CSc1nc2c(cnn2-c2ccc(F)cc2)c(=O)[nH]1)N1CCCCCC1	-17%	-0.1%	-6%	12%	-9%	-2%	-25%	11%
C/C(=N\NC(=O)c1cc(O)ccc1O)c1cccc(NC(=O)c2cccc(Cl)c2)c1	-24%	nt	-7%	nt	nt	-16%	22%	nt
NC(=O)COc1ccccc1	4%	nt	1%	nt	nt	4%	-8%	nt
Nc1nc(SCC(=O)Nc2ccc([N+](=O)[O-])cc2)n[nH]1	3%	nt	-1%	nt	4%	18%	-26%	-10%
Cc1nn(Cc2ccccc2)c(Cl)c1C(=O)OCc1nnc(-c2ccc(Cl)cc2)o1	-4%	2.1%	-6%	-11%	-26%	-12%	0%	7%&-27%
c1ccc2c(N3CCCCC3)nc(N3CCCCC3)nc2c1	-8%	4.2%	4%	-1%	?	-13%	?	26%&26%
CNc1ccccc1-n1ccc(-c2ccccc2)n1	-17%	-2.4%	-18%	-9%	?	?	33%[activator]	19%[46.1 µM]
O=C(C1CCN(Cc2ccc(Cl)cc2)CC1)N1CCN(C(c2ccccc2)c2ccccc2)CC1	-19%	0.0%	1%	0%	?	23%	-20%	?
Cc1cccc(C)c1OCc1nc2ccccc2c(=O)n1/N=C/c1c[nH]c2ccccc12	7%	-5.7%	-10%	3%	2.5µM*	-10%	?	?
Cc1cccc(N2CCN(C(c3ccccc3)c3nnc(-c4ccccc4F)o3)CC2)c1C (stereo unspecified)	nt	-1.4%	nt	-5%	?	nt	-14%	-24%[46.1 µM]
COc1cccc(CN2CCNC(=O)C2CC(=O)NCCn2ccc3ccccc32)c1OC (stereo unspecified)	10%	nt	-1%	nt	nt	-15%	-13%	nt
CCN(C(=O)COC(=O)CNC(=O)c1ccc(F)cc1)C1CCS(=O)(=O)C1 (stereo unspecified)	5%	nt	-1%	nt	-1%	-4%	-5%	-7%[46.1 µM]
Cc1ccc(NC(=O)C2CCCN(S(=O)(=O)c3c(C)noc3C)C2)c(Br)c1 (stereo unspecified)	11%	nt	3%	nt	nt	4%	32%[activator]	nt
Cc1cccc(-n2c(C)cc(/C=N/NC(=O)c3ccc(CN4CCOCC4)cc3)c2C)c1	9%	-3.3%	9%	-21%	-39%[14.3 µM]	45%	?	-4%
Cc1cccc(CNC(=O)C(=O)Nc2ccccc2C)c1	nt	0.2%	nt	-3%	-7%[46.1 µM]	nt	2%	3%[46.1 µM]
CCOC(=O)C1C(=O)C=C(Nc2ccccc2F)CC1c1ccccc1 (stereo unspecified)	-10%	-2.6%	8%	1%	5%	-5%	30%[activator]	?
COc1ccccc1CNC(=O)CCc1c(C)nc2c(c(C)nn2-c2ccc(C)c(C)c2)c1C	nt	-0.7%	nt	2%	0%[46.1 µM]	nt	4%	-3%[46.1 µM]
Cc1ccc(-c2nnn(CC(=O)N3c4ccccc4CCc4ccccc43)n2)cc1	?	-3.7%	-6%	?	-6%	3%	nt	?
CCc1ccc(Cn2nnc(C(=O)Nc3ccc(C)cc3)c2N)cc1	nt	3.6%	nt	?	7%[46.1 µM]	nt	13%	?
CN(CC(=O)Nc1ccc(F)cc1)C(=O)c1ccc(OCc2cn3ccccc3n2)cc1	nt	nt	0%	nt	12%[46.1 µM]	-2%	2%	-8%[46.1 µM]
COCCC(=O)Nc1ccc2c(c1)CN(C(=O)CCSC)CC2	0%	nt	-1%	nt	2%	-7%	-9%	-5%[46.1 µM]
